# Insulin prom inh = TRM-6 insulin promoter activity inhibition | TRM-6 cells (human fetal islet line), insulin promoter-eGFP reporter, imaging; reporter expression induced with tamoxifen | inhibition, % at 2 µM | 130,000 compounds, 0.9% hits | AID 1273;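 active = inhibition above the mean plus 3 SD, with well images judged a real hit on visual review, cut at about 60% in these data, passing the limit was not always enough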
# GALR2 ag = GALR2 (human) receptor agonism; O43603; GALR2-expressing cells, agonist activation read-out; activation, %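 (tested at 5 µM)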; 140,000 compounds, 0.48% hits; AID 803;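 active = above mean plus 3 SD of all compounds, about 5% in these data, not always enough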;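 also: 0% = vehicle buffer wells and 100% = reference agonist at full effect; tested in CHO reporter cells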
# Target sequence (O43603 whole entry, looked up): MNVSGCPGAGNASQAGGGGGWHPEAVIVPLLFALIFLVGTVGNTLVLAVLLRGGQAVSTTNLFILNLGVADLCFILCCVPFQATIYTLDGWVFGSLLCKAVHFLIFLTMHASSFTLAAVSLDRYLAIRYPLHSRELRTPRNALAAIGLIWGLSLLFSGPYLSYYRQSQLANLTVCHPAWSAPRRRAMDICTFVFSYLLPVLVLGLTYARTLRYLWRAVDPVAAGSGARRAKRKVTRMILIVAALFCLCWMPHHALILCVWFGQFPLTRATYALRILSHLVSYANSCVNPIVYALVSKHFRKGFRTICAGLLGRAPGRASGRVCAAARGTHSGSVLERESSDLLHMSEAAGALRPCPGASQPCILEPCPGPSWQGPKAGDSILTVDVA
# RGS16-Gao HTS = modulates binding between human RGS16 and Galphao; bead-based flow cytometry RGS16-Galphao binding, fluorescence; actives lie on both sides; 220,000 compounds, 0.38% hits; AID 1441; O15492+P09471; binding response (% of control), % at 10 µM;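 active = below 25% or above 175%, edge rows of some plates excepted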;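 also: Galphao activated by GDP with aluminum fluoride before binding; 100% = wells without compound and 0% = beads without RGS; some results beyond the cut were filed as inactive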
# Target sequence (O15492 whole entry, looked up): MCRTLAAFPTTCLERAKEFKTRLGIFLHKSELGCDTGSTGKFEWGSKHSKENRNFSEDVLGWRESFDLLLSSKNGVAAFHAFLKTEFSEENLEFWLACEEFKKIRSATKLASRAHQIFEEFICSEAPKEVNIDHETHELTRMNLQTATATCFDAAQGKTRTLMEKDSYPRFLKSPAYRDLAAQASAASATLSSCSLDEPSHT
# Target sequence (P09471 whole entry, looked up): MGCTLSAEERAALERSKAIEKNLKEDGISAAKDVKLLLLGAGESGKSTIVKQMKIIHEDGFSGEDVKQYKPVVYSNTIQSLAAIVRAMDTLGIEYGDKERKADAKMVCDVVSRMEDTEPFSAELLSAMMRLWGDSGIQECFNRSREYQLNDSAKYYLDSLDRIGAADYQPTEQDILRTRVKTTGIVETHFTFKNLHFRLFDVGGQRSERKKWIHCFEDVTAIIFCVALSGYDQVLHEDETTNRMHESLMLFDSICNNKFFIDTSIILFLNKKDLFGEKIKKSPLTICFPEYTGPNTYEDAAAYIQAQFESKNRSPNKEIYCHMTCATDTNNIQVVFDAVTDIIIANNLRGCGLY
# HSV replic up = HSV replication enhancement; maximum fold increase; HSV replication augmentation in cells, fold increase; AID 1956; 220,000 compounds, 0.005% hits;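 active = peak rise of 1.5-fold or more in the series; tested in PC3 cells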;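 also: first round at 10 µM; read as green reporter fluorescence; hits show the peak of a series up to 25 µM; 1 = signal of infected wells without compound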
# PKD1 inh = inhibitors of human PKD1 kinase; Q15139; PKD1 kinase fluorescence polarization assay; inhibition, %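 (about 10 µM by stock and volumes)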; 200,000 compounds, 0.056% hits;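 active = inhibition of 50% or more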;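 also: controls were vehicle for no effect and a reference inhibitor for full effect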
# Insulin prom inh cell count = also measured in Insulin prom inh; calls as there; normalized cell count, %; measured here: cell count, toxicity; reference of the scale not given here;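 cells exposed to compound for 48 h; stained nuclei by imaging scaled within each plate; lower means fewer cells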
# HSV replic up primary fold = recorded beside HSV replic up, whose call it bears; fold increase; compound at 10 µM; measured here: primary screen fold increase 10 uM; tested in PC3 cells;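 GFP signal in the first replicate; 1 = infected wells without compound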
# * = called active by the depositor; i = inactive; . = no result given.
SMILES,Insulin prom inh,Insulin prom inh cell count,GALR2 ag,RGS16-Gao HTS,HSV replic up,HSV replic up primary fold,PKD1 inh
CCOc1cc(CO)cc(Br)c1OCC(N)=O,.,.,.,100,i,0.98,0
O=C(CN1CCCCC1)Nc1ccccc1NC(=O)CN1CCCCC1,12,118,-1.1,110,i,0.94,1
Cc1ncoc1C(=O)N1CCCC(C(=O)c2cccc(C(F)(F)F)c2)C1 (configuration not stated),.,.,.,104,i,1,2
Cc1cc(NCCOCCO)n2ncc(-c3ccc(Cl)cc3)c2n1,50,125,-1.0,95,i,0.88,-4
COC(=O)c1nc(N)sc1-c1ccccc1,-34,102,1.2,97,i,0.8,-3
Cc1cc(C)c2c(CN3CCN(C/C=C/c4ccccc4)CC3)cc(=O)oc2c1,11,119,-2.3,105,i,0.88,-9
Cc1cccc(-c2noc(CN(C(=O)c3c(-c4ccccc4Cl)noc3C)C(C)C)n2)c1,.,.,-1.6,108,i,0.93,-9
O=C(CN1CCCCCCC1)Nc1cc(Cl)cc(Cl)c1,25,56,.,164,i,0.99,8
Cc1[nH]nc2c1C(c1ccccn1)N(c1ccc(Br)cc1)C2=O (configuration not stated),.,.,-0.4,94,i,0.84,-4
CCc1ccccc1OCCCCCNCCO,-22,84,-2.4,103,i,0.96,8
COc1ccc(C(=O)NCCc2nnc(SCC(=O)Nc3ccc(Br)cc3)n2C)cc1,-143,112,-1.8,137,i,0.89,-2
O=S(=O)(NCCc1cn2ccccc2n1)c1ccc2c(c1)CCCC2,-198,98,-0.5,96,i,1.1,-8
O=c1[nH]c(N/N=C\c2ccc3c(c2)OCO3)nc2ccccc12,.,.,.,108,i,0.95,0
Cc1[nH]c2ccccc2c1C(=O)C(=O)NCc1ccco1,-58,147,.,105,i,0.94,-7
O=C(CSc1ncccn1)NCc1ccc(F)cc1,.,.,-1.2,100,i,0.84,-6
O=C(Nc1nnc(-c2ccco2)o1)c1ccc([N+](=O)[O-])s1,5,153,.,105,i,0.95,-3
Cn1ncc2c(Nc3ccc(-c4ccccc4)cc3)ncnc21,.,.,-0.3,105,i,0.7,0
COc1ccccc1OCC(=O)N1CCN(c2ccccc2OC)CC1,.,.,.,102,i,0.79,.
CC(OC(=O)Cc1ccc(Cl)cc1)C(=O)NCCC1=CCCCC1 (configuration not stated),0,54,-2.9,116,i,1,0
CN(C(=O)c1cccc(C#N)c1)c1nnc(C2CCCO2)s1 (configuration not stated),.,.,-1.3,102,i,0.95,11
COc1ccc(-n2nc(C(C)=O)c(=O)[nH]c2=O)cc1,38,95,.,99,i,0.97,-2
CC(C)CC(=O)N1CCN(S(=O)(=O)c2ccc(F)cc2)CC1,22,96,0.2,100,i,0.87,-6
COCCNC(=O)CN(C(=O)Cn1nnc2ccccc21)c1ccccc1,8,219,0.3,99,i,1,-1
Cc1cc(/C=C(\C#N)C(=O)NC2CCCCCC2)c(C)n1C,.,.,0.8,112,i,1,8
C=CCN(CC=C)CCCOc1ccc(C)cc1OC,47,78,.,99,i,1.1,-4

# Additional records.
SMILES,Insulin prom inh,Insulin prom inh cell count,GALR2 ag,RGS16-Gao HTS,HSV replic up,HSV replic up primary fold,PKD1 inh
CCOC(=O)c1sc(NC(=O)c2cc(-c3ccccc3C)nc3ccccc23)c(C#N)c1C,17,142,-1.1,94,i,0.93,-2
O=C(Nc1nn[nH]n1)c1cccc(Oc2ccccc2)c1,.,.,-1.6,101,i,0.93,-14
CCOC(=O)C1CCN(C(=O)CCCCn2c(=O)[nH]c3ccccc3c2=O)CC1,52,64,0.0,102,i,0.9,-10
Cn1[nH]c(=O)c2ccccc2c1=O,.,.,-1.0,99,i,0.96,-2
CCC(C)Cn1c(O)cc2nn(-c3nc4ccccc4s3)c(=O)c-2c1C (configuration not stated),.,.,.,97,i,1,.
O=C(Cc1cccs1)N/N=C\c1ccc([N+](=O)[O-])s1,.,.,.,100,i,0.83,2
C=CC[C@H]1Cc2c(cccc2[N+](=O)[O-])[C@H](CC=C)N1,-88,117,.,97,i,0.94,-5
O=C(NCC1(c2ccccc2)CCCC1)C1(c2ccccc2)CCCC1,-39,88,-0.2,108,i,1,-3
COc1ccc(OCC(=O)Nc2ccccc2C(=O)N2CCCC2)cc1,43,136,-2.8,104,i,0.99,-7
C=CCOC(=O)Nc1snnc1C,-56,66,-0.3,122,i,0.89,-11
O=C1CC(c2ccccc2)N1c1ccccc1 (configuration not stated),-12,127,-2.5,100,i,0.96,0
CCn1cc(CNC(=O)c2c(-c3c(Cl)cccc3Cl)noc2C)c(C)n1,23,191,0.7,106,i,0.96,-8
COc1ccc(C(=O)CN2C(=O)NC(C)(c3ccccc3)C2=O)cc1OC (configuration not stated),24,70,-3.0,102,i,0.97,-6
Cn1c(=O)c(=O)n(C)c2cc(S(=O)(=O)NCCOc3ccccc3Cl)ccc21,.,.,.,102,i,1.1,-7
Cc1c(C(=O)OCC2CCCO2)[nH]c2c1C(=O)CC(c1ccc(N(C)C)cc1)C2 (configuration not stated),.,.,-1.6,96,i,0.82,-1
O=S1(=O)CCN2C=C(Cl)C=C(Cl)C2=N1,-27,66,.,95,i,1.1,1
CCCCCn1c(CN2CC(C)OC(C)C2)nc2c1c(=O)n(C)c(=O)n2C (configuration not stated),10,111,-0.4,.,i,1,-15
Nn1c(SCC(=O)Nc2ccc(F)cc2F)nnc1-c1cccnc1,-21,99,-4.0,86,i,0.87,-18
CN(C)c1cccc(C(=O)N/N=C/c2ccsc2)c1,7,108,-2.2,101,i,0.79,-8
O=C(NC1CCCC1)C1CCCN1S(=O)(=O)c1cccc2cccnc12 (configuration not stated),.,.,-1.8,102,i,0.86,-7
CN(C)S(=O)(=O)N1CCC(CO)(CCc2ccccc2)CC1,.,.,.,114,i,0.9,-9
Nc1c(C(=O)OCC2CCCO2)c2nc3ccccc3nc2n1C1CCCCC1 (configuration not stated),-52,100,-2.8,107,i,1.1,-2
O=C(O)CCCCC1CCSS1 (configuration not stated),-7,112,.,98,i,0.96,-2
CC(CSc1nnnn1-c1ccccc1)Cn1c(N2CCCC2)nc2c1c(=O)[nH]c(=O)n2C (configuration not stated),31,95,0.9,55,i,0.93,2
CC(=O)N(Cc1ccccc1)c1ncc2c(n1)c(=O)c(C#N)c1ccccn12,-21,84,-0.2,96,i,0.77,2

# (next part)
SMILES,Insulin prom inh,Insulin prom inh cell count,GALR2 ag,RGS16-Gao HTS,HSV replic up,HSV replic up primary fold,PKD1 inh
CSC1=NCCN1S(=O)(=O)c1ccccc1,29,137,.,101,i,0.97,-10
Cc1ccc(/C=N/NC(=O)c2ccccn2)s1,5,53,-1.2,111,i,0.94,7
CC(=O)Nc1ccc(S(=O)(=O)Oc2ccc(/C=N/NC(=O)c3ccc(Cl)cc3)cc2)cc1,0,57,0.2,103,i,0.88,-12
CC(C)(C)NC(=O)CN(C(=O)C1CSC(=O)C1)c1ccc2c(c1)OCCO2 (configuration not stated),-26,273,1.2,106,i,0.97,-2
O=C(Nc1cc(Cl)ccc1N1CCOCC1)c1cnccn1,-331,88,-3.0,105,i,0.9,6
Cn1c(SCC(=O)Nc2cc(C(C)(C)C)nn2-c2ccccc2)nc2ccccc21,13,83,-1.7,111,i,0.86,19
S=c1[nH]nc(-c2ccc(Cl)cc2)n1Cc1ccccc1,56,91,-1.6,112,i,0.98,8
O=C(O)C1CSC(c2ccc3c(c2)OCO3)N1 (configuration not stated),.,.,.,101,i,0.94,.
Cc1ccc(-c2cn(-c3ccccc3)c(SCC(N)=O)n2)cc1C,.,.,-0.2,101,.,.,-9
CCC(=O)N1CCN(c2ccc(NC(=S)NC(=O)COc3ccccc3)cc2)CC1,.,.,.,98,i,0.92,-9
CC(C)(C)n1nnnc1C(c1ccc(F)cc1)N(Cc1ccc(F)cc1)Cc1ccco1 (configuration not stated),-13,83,-0.6,95,i,1,-2
CC1CCC(C(C)C)C(OCC(O)C[N+]2(C)CCCCC2)C1 (configuration not stated),.,.,.,106,i,0.99,3
Cc1[nH]c2ccccc2c1C(=O)CSc1n[nH]c(N)n1,30,104,.,96,i,1.2,-3
O=C(O)CCc1c(C(=O)O)[nH]c2ccccc12,30,119,-0.2,104,i,0.93,5
COCCN(CC(=O)Nc1ccccc1)S(=O)(=O)c1ccc(S(=O)(=O)N2CCCC2)cc1,-45,81,-2.1,100,i,1.1,-10
CN(C(=O)c1cc2c(s1)-c1ccccc1S(=O)(=O)C2)c1ccccc1,.,.,.,105,i,0.94,.
OCCNc1nc(Nc2ccccc2)nc2ccccc12,55,108,-1.8,184,i,0.8,13
COc1cccc(-c2nnc(NC(=O)c3ccccc3Br)o2)c1,.,.,.,109,i,0.98,.
CCOC(=O)CSc1ccc(S(=O)(=O)N2CCCC2)cc1[N+](=O)[O-],14,99,.,93,i,1,2
COc1cccc(CN2CCN(Cc3cc(OC)c(OC)cc3[N+](=O)[O-])CC2)c1,.,.,-2.7,95,i,1,-6
Nc1nc(SCC(=O)NCCOCCO)nc2sc3c(c12)CCCC3,.,.,.,123,i,1,-2
C#CCOCCOCCOCCNc1nc(N2CCN(C(=O)[C@H](Cc3ccc(O)cc3)n3cc([C@@H](N)C(C)CC)nn3)CC2)nc(N2CCN(C(=O)[C@H](CCCCN)n3cc([C@@H](N)CC(C)C)nn3)CC2)n1 (some centres not stated),.,.,.,98,.,.,0
c1ccc(-c2nnnn2CCOCCn2nnnc2-c2ccccc2)cc1,-19,141,0.0,119,i,0.72,1
CCN(CC)c1ccc(S(=O)(=O)Nc2cc(Cl)ccc2Cl)cc1NC(=S)NC(=O)C1CCCC1,-33,42,1.2,91,i,1.1,-8
O=c1c2ccccc2c(/C=N/c2nnc(Cc3ccccc3)s2)c(O)n1-c1ccc(Cl)cn1,-6,68,0.3,100,i,1,-8

# Nothing new here: 11 of the compounds above.
SMILES,Insulin prom inh,Insulin prom inh cell count,GALR2 ag,RGS16-Gao HTS,HSV replic up,HSV replic up primary fold,PKD1 inh
CSC1=NCCN1S(=O)(=O)c1ccccc1,29,137,.,101,i,0.97,-10
Cc1ccc(/C=N/NC(=O)c2ccccn2)s1,5,53,-1.2,111,i,0.94,7
CC(=O)Nc1ccc(S(=O)(=O)Oc2ccc(/C=N/NC(=O)c3ccc(Cl)cc3)cc2)cc1,0,57,0.2,103,i,0.88,-12
CC(C)(C)NC(=O)CN(C(=O)C1CSC(=O)C1)c1ccc2c(c1)OCCO2 (configuration not stated),-26,273,1.2,106,i,0.97,-2
O=C(Nc1cc(Cl)ccc1N1CCOCC1)c1cnccn1,-331,88,-3.0,105,i,0.9,6
Cn1c(SCC(=O)Nc2cc(C(C)(C)C)nn2-c2ccccc2)nc2ccccc21,13,83,-1.7,111,i,0.86,19
S=c1[nH]nc(-c2ccc(Cl)cc2)n1Cc1ccccc1,56,91,-1.6,112,i,0.98,8
O=C(O)C1CSC(c2ccc3c(c2)OCO3)N1 (configuration not stated),.,.,.,101,i,0.94,.
Cc1ccc(-c2cn(-c3ccccc3)c(SCC(N)=O)n2)cc1C,.,.,-0.2,101,.,.,-9
CCC(=O)N1CCN(c2ccc(NC(=S)NC(=O)COc3ccccc3)cc2)CC1,.,.,.,98,i,0.92,-9
CC(C)(C)n1nnnc1C(c1ccc(F)cc1)N(Cc1ccc(F)cc1)Cc1ccco1 (configuration not stated),-13,83,-0.6,95,i,1,-2

# Further entries:
SMILES,Insulin prom inh,Insulin prom inh cell count,GALR2 ag,RGS16-Gao HTS,HSV replic up,HSV replic up primary fold,PKD1 inh
CC(C)c1ccc(COc2ccc(C(=O)N3CCOCC3)cc2)cc1,-60,85,.,111,i,0.81,-4
Cc1nc(N2CCc3ccccc3C2)[nH]c(=O)c1CCC(C)C,-35,131,-0.8,119,i,1,-3
COCC(C)N=C1NN=C(c2c[nH]c3ccccc23)CS1 (configuration not stated),29,128,-2.2,104,i,0.96,-4
CCOC(=O)c1c(NC(=O)CCN2C(=O)c3cccc([N+](=O)[O-])c3C2=O)sc(C(=O)OC(C)C)c1C,31,85,-1.7,17,i,1,-2
CCOC(=O)C1=C(C)NC(=O)NC1c1ccc(OCCO)c(OC)c1 (configuration not stated),-42,216,-0.2,102,i,0.97,-2
COC(=O)c1ccc(NC(=O)NS(=O)(=O)c2ccc(C)cc2)cc1,.,.,-2.9,102,i,0.87,1
CCN(CC)c1ccc2cc(S(=O)(=O)c3ccc(C)cc3)c(=O)oc2c1,29,107,6.0*,118,i,1.1,5
COc1ccc(C(=O)c2cnc(/N=C/N(C)C)s2)cc1,.,.,-0.8,98,i,0.77,-5
CC(C(=O)OCc1nnc(-c2ccccc2)o1)N1C(=O)c2ccccc2C1=O (configuration not stated),-62,57,-1.1,119,i,0.89,-3
COc1ccc(C2/C=C\CN(C(=O)NC(C)C)CC(=O)N2Cc2ccc(F)cc2)cc1 (configuration not stated),.,.,.,106,i,1,.
CCCCNCc1cc(OCC)c(OCC(N)=O)cc1Br,-60,29,-1.3,105,i,0.96,-2

# Source: PubChem BioAssay
